Assay outcomes: PubChem, several laboratories
Bfl-1 A1 inh – inhibitors of the anti-apoptotic protein A1, read as caspase activation; caspase activation, % (no concentration beside the values); MEF A1-2A-BIM cells, Caspase-Glo 3/7 luminescence, 3 h; percent of clofoctol response, vehicle zero; 0.066% of 330,000 active; AID 2462;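 active means over half of replicate activation scores above 10%, or exactly half above 10 with the replicate mean above 10; inconclusive means replicate mean below 10 yet half the replicates above 10; inactive means over half of replicates below 10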;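 further: wells of about 30 µL received 50 nL stock; many hits fall short of the cut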
HNF4A DNA FP – change in binding of human HNF4 alpha to DNA. P41235. HNF4a-FITC DNA binding, fluorescence polarization, 1 h. activity change, % at 10 µM. 0.3% of 360,000 active; in the data active means activity change above about 30%, passing the limit was not always enough;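 further: controls were the assay level and a saturating level of protein; the project sought stronger binding though the title names inhibitors; some compounds called inactive have numbers as strong as hits; positive values seem to mean higher polarization but the record does not say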
Vif TR-FRET – HIV-1 Vif–A3G interaction blockers – biochemical, TR-FRET, GST-Vif 1-94, biotin-A3G peptide, dose response retest, primary screen (AID 1117319); TR-FRET GST-Vif / biotin-A3G peptide binding; higher % means a stronger effect; test concentration not given here; strong numbers were not always called active; inhibition, %; hits with a dose series show IC50 in µM; 0.57% of 260,000 active;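 active means above the screen mean plus three standard deviations and confirmed in dose response; inconclusive means results disagree or hit not tested in dose response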;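 further: Vif residues 1-94 fused to GST binding biotinylated APOBEC3G peptide 110-148; 0% = full assay without inhibitor and 100% = GST in place of GST-Vif; retest series ran down from 100 µM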
Beta2AR agonist – agonists of human beta-2 adrenergic receptor inducing internalization; P07550; Am2.2-beta2AR cells, FAP receptor internalization, flow cytometry; reference of the scale not given here; response, % (concentration not given with the values); 0.43% of 340,000 active; AID 504454;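 active means response above a set limit, near 3 SD of response in nonfluorescent compounds, cut at about 42% in these data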;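 further: stock transfer was 100 nL into about 11 µL; a reference agonist was the positive control; negative values mostly stem from fluorescent compounds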
LANA-H2A inh – blocks KSHV LANA binding to histone H2A/H2B. Q9QR71. cell-free LANA-H2A/H2B peptide, fluorescence polarization. inhibition, % (concentration not given with the values). 0.6% of 320,000 active; in the data active means inhibition mostly above about 10%, no sharp cut-off; inactive means mostly below about 6.7%;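 further: stock transfer was 7.5 nL into about 10 µL; 0% = median of vehicle wells and 100% = median of positive control wells; one replicate is shown; the record names a cut of 25% in any replicate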
Target sequence (Q9QR71 whole entry, looked up): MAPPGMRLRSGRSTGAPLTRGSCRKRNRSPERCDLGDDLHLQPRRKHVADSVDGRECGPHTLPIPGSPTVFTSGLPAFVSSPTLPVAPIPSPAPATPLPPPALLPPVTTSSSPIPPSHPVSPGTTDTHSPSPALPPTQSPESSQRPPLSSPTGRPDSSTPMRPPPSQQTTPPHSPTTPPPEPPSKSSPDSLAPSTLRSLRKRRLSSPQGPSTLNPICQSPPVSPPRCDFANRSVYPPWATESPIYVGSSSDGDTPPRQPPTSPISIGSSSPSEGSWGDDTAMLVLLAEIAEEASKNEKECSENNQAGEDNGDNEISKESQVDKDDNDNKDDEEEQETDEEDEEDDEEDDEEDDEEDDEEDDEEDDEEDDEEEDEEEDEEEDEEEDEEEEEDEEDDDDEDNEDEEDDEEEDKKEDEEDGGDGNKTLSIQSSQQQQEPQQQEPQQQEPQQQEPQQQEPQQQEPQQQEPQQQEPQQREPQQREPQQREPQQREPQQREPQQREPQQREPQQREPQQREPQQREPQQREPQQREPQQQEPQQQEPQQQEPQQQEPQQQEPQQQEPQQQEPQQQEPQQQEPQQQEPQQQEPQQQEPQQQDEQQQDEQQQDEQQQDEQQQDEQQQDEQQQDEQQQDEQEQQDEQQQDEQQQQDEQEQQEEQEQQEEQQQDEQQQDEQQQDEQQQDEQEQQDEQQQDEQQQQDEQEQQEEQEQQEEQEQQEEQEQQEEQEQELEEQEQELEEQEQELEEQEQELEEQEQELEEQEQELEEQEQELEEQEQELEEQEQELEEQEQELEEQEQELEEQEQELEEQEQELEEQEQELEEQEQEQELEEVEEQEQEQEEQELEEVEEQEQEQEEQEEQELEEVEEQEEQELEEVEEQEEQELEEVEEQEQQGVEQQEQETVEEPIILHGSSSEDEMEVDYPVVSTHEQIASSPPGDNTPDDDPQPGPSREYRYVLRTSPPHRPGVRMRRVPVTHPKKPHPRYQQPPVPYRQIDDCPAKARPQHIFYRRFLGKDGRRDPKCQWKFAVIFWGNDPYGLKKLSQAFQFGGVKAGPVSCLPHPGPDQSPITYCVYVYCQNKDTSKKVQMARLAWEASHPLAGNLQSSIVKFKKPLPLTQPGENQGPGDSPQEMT
Ecoli growth – blocks Escherichia coli growth | OD600, 23 h; hits give low values | OD600 absorbance (no concentration beside the values) | 0.21% of 330,000 active;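 active means OD600 absorbance below the run mean of sample wells minus 3.6 SD, in any replicate, cut at about 0.56 in these data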;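 further: stock transfer was 300 nL into about 60 µL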
UCH37 inh – blocks the human deubiquitinase UCH37; Q9Y5K5; purified proteasome/UCH37, Ub-AMC cleavage fluorescence; inhibition, % (concentration not given with the values); 0.33% of 330,000 active; AID 588478;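 active means mean of two replicates above 20%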;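 further: 0% = compound-free wells with enzyme and 100% = wells lacking proteasome; stock transfer was 100 nL into about 20 µL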
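Schedule: 30 min plus 25 min, room temperature / Material: human UCH37 within purified proteasomes / Technique: AMC fluorescence intensity at 355/460 nm / Buffer or medium: pH 7.4 Tris-HCl (50 mM) with ovalbumin, ATP-MgCl2, DTT / Controls: wells without proteasome as full block, compound-free enzyme plus substrate as uninhibited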
Starred values were filed as active, the others as inactive; u = inconclusive; x = not tested or not shown. This is a random part of the collection (roughly 2.1% active in at least one column).

The opening three entries, to show the layout:
SMILES	Bfl-1 A1 inh	HNF4A DNA FP	Vif TR-FRET	Beta2AR agonist	LANA-H2A inh	Ecoli growth	UCH37 inh
O=C(NC(=S)N1CCCCC1)c1cccnc1	0.9	-0.7	u	-3.7	1.6	0.721	-0.3
CN(C)c1ccc(NC(=O)c2sc(SCC(=O)Nc3nccs3)nc2N)cc1	-1.5	1.4	4.7%	4.3	1.3	0.685	3.6
COc1ccccc1CNC(=O)[C@@H](NC(=O)C1CCN(C(=O)[C@@H]2CCCN2C(=O)OC(C)(C)C)CC1)C(C)C	0.0	-1.8	x	-8.1	3.7	0.73	1.8

Results, previewed entries included:
SMILES	Bfl-1 A1 inh	HNF4A DNA FP	Vif TR-FRET	Beta2AR agonist	LANA-H2A inh	Ecoli growth	UCH37 inh
O=C(NC(=S)N1CCCCC1)c1cccnc1	0.9	-0.7	u	-3.7	1.6	0.721	-0.3
CN(C)c1ccc(NC(=O)c2sc(SCC(=O)Nc3nccs3)nc2N)cc1	-1.5	1.4	4.7%	4.3	1.3	0.685	3.6
COc1ccccc1CNC(=O)[C@@H](NC(=O)C1CCN(C(=O)[C@@H]2CCCN2C(=O)OC(C)(C)C)CC1)C(C)C	0.0	-1.8	x	-8.1	3.7	0.73	1.8
Cc1ccc(NS(=O)(=O)c2cc(C(=O)O)ccc2Cl)c(C)c1	-0.2	-0.8	u	3.2	3.9	0.729	-1.0
COc1ccc2oc(=O)c(/C(C)=N/Nc3ccccc3)cc2c1	-0.3	-0.6	-2.6%	-2.4	8.4	x	x
CCOc1ccc(NC(=O)CN(C)C(=O)c2ccc3c(c2)S(=O)(=O)N=C2CCCCCN23)cc1OCC	x	3.0	x	3.8	x	0.72	5.4
Cc1cc(C)n2nc(SCCCC(=O)c3ccccc3)nc2n1	0.0	4.9	-0.5%	-5.1	2.4	0.695	1.1
CCOCCCNC(=O)CN1CCN(Cc2ccc(Cl)cc2)C1=O	2.8	1.2	-7.2%	-0.3	3.9	0.679	7.5
CC1CCN(C(=O)c2ccc(S(=O)(=O)N3CCOCC3)cc2)CC1	-0.9	4.3	3.5%	5.6	5.7	0.695	5.8
CCOC(=O)CSc1ccccn1	-0.7	-1.9	-3.1%	-4.7	1.1	0.742	2.7
CC(Nc1nc(-c2ccc(F)cc2)cs1)c1nc2cc(C(F)(F)F)ccc2n1CCCO (stereo not given)	0.3	2.4	x	-3.5	4.4	0.641	1.3
CCOc1ccc(NC(=O)CCN2C(=O)CSc3ccccc32)cc1	0.6	0.8	-17.6%	-2.3	-360.6	0.658	3.2
CS(=O)(=O)N(CCc1ccccc1)CC(=O)Nc1ccc2c(c1)OCO2	-2.4	0.2	13.8%	1.0	1.6	0.702	-0.6
Nc1[nH]ncc1-c1ccc(Cl)cc1	0.0	-5.0	x	1.3	-1.8	0.696	2.5
c1ccc2c(-c3nnc4n3CCCCC4)cc(-c3ccncc3)nc2c1	0.4	4.1	x	-5.4	-1.5	0.719	2.7
Cc1cnc(C(=O)N2CCCC(C(=O)c3ccc(Cl)cc3C)C2)cn1 (stereo not given)	-0.1	3.4	-4.6%	-3.1	6.7	0.692	4.0
Cc1nc(-c2nc(C(=O)NNS(C)(=O)=O)cs2)cs1	1.4	-2.7	2.4%	8.2	-1.1	0.707	3.2
O=C(c1ccco1)N1CCN(S(=O)(=O)Cc2ccccc2Cl)CC1	0.3	2.5	-0.7%	-1.8	2.3	0.673	-0.5
Cc1ccc(OCC(=O)N/N=C/c2ccncc2)cc1C	0.2	1.6	x	2.1	0.8	x	x
COc1[nH]c2ccc(F)cc2c1C(=O)OCC1CCN(CCNS(C)(=O)=O)CC1	0.4	0.8	x	-4.2	1.6	0.717	3.7
CS(=O)(=O)CCC(C(=O)OCc1ccc(Br)cc1)N1C(=O)c2ccccc2C1=O (stereo not given)	0.6	-5.1	13.4%	-2.8	16.6	0.704	1.2
O=C(CCN1c2ccccc2Sc2ccccc21)OCC(=O)N1CCN(C(=O)c2ccco2)CC1	-0.9	-1.1	-2.6%	2.2	1.6	0.718	1.1
CCC(CC)CN1CCC(CN2C(=S)NC[C@@H]2[C@@H](C)CC)CC1	x	-1.5	3.9%	-8.5	x	x	x
COC(=O)C(C)N1C(=O)S/C(=C/c2cc(C)n(C(C)C)c2C)C1=O (stereo not given)	-0.1	4.8	3.8%	1.6	-4.0	0.652	0.1
COc1ccc2c(c1)C(c1cccs1)=NNC(c1ccncc1)=N2	-0.1	-1.0	-4.5%	8.5	-1.0	0.678	5.8
Cc1cc(/N=C/C=C2/N(C)c3ccccc3C2(C)C)n(CCC#N)n1	x	1.9	-0.8%	5.5	x	0.676	10.3
CN(CC(=O)Nc1ccc(Cl)c(Cl)c1)C(=O)CN1C(=O)NC2(CCCC2)C1=O	-0.2	2.0	1.0%	6.7	4.8	0.628	5.7
CCOC(=O)c1c(C)n(C)c2ccc(OC)c([N+](=O)[O-])c12	1.0	-2.7	x	5.9	-3.2	0.718	3.1
Cc1nn(CCC(=O)NCCc2ccccc2Cl)c(=O)c2nn(-c3ccccc3)c(C)c12	-0.5	-3.5	x	-0.8	-2.1	0.661	1.6
COc1ccc(OC)c(N2Cc3cc(C)c(C)cc3C2)c1	-0.2	2.9	19.7%	2.8	11.9	0.653	2.0
COc1cc(C(C)=O)ccc1OCC(O)CNCC1(N2CCCCC2)CCCCC1 (stereo not given)	0.1	-4.3	22.1%	x	5.3	0.718	1.1
COc1ccc(C(=O)N2CCN(Cc3ccc4c(c3)OCO4)CC2)cc1[N+](=O)[O-]	0.1	-8.5	x	8.5	-6.8	0.756	6.4
CCOc1ccc(N(C)S(=O)(=O)c2ccc(C)c(C(=O)N3CCN(Cc4ccc5c(c4)OCO5)CC3)c2)cc1	-2.2	-0.9	3.7%	7.2	1.2	0.702	1.3
COc1cccc(NC(=O)CCNS(=O)(=O)c2ccc3c(c2)CC(C)N3C(=O)C2CC2)c1 (stereo not given)	0.6	-0.2	-1.5%	-7.7	-1.5	0.682	-2.9
O=Cc1cc(N=Nc2ccc(S(=O)(=O)O)cc2)ccc1O	0.1	-3.8	x	2.3	-5.5	0.696	21.3*
CCC(c1nnnn1C(C)(C)C)N1CCN(C2CCCC2)CC1 (stereo not given)	1.5	-0.9	-1.8%	-6.8	3.8	0.793	1.6
Cc1ccc(C(=O)Nc2cccnc2)cc1S(=O)(=O)N1CCCCC1	-0.2	1.0	u	-10.1	3.8	0.713	2.6
CC(C)c1ccc(N(CC(=O)N/N=C/c2ccc(OC3CSC3)cc2)S(=O)(=O)c2ccccc2)cc1	0.3	-2.9	26.0%	-0.6	-4.3	x	x
Cc1ccc(C)c(NC(=O)c2ccccc2NS(=O)(=O)c2cc([N+](=O)[O-])ccc2C)c1	-0.1	-1.5	x	16.9	5.3	0.7	4.7
Cc1ccc(S(=O)(=O)N/N=C/c2cc(Br)ccc2O)cc1	-0.4	5.6	x	-5.9	0.4	x	x
Cc1[nH][nH]c(=O)c1C(c1ccccc1[N+](=O)[O-])C(C#N)C#N (stereo not given)	0.2	2.9	17.1%	-3.1	3.3	0.607	-3.4
O=C(N/C(=C/c1ccccc1Cl)C(=O)N1CCCCC1)c1ccco1	1.9	0.9	3.5%	-5.1	4.7	0.665	0.5
COc1cc(NC(=S)N2CCN(c3ccccn3)CC2)c(OC)cc1Cl	0.2	3.5	-11.0%	-4.1	-4.4	0.636	1.2
CC(=O)c1cccc(NC(=O)C2CCN(C(=O)c3cccs3)CC2)c1	0.0	0.2	x	-6.3	-0.5	0.695	4.1
O=C(O)Cc1ccc(NC(=S)Nc2ccc(Br)cc2Cl)cc1	0.3	1.9	-3.4%	-0.8	-3.9	0.675	-0.6
Cc1ccsc1C(=O)OC1CCOC1=O (stereo not given)	0.4	2.2	0.7%	-4.1	-1.3	0.745	0.0
CN(Cc1ccccc1)S(=O)(=O)c1ccc(Cl)c(C(=O)NCc2ccc3c(c2)OCO3)c1	0.4	-0.1	3.7%	5.5	-0.5	0.624	2.3
CCCOC(=O)C1C2C=C[C@]3(CN(CCc4ccccc4)C(=O)[C@H]13)O2 (stereo not given in full)	0.6	-0.4	3.4%	-2.9	0.6	0.776	1.1
O=C(NCc1nc2ncc(Br)cc2[nH]1)c1ccccc1	0.2	2.0	8.8%	4.6	0.0	0.642	0.7
CC(/C=N/NC(=O)CSc1nc2ccccc2n1C)=C\c1ccco1	2.9	1.3	14.7%	-2.5	2.2	x	x
COCCNC(=O)C1CCC(CNS(=O)(=O)c2ccccc2)CC1 (stereo not given)	0.4	1.6	-12.3%	-0.6	-0.7	0.66	5.5
Cc1cc(Cl)ccc1NC(=O)c1ccc2c(c1)CCN2S(C)(=O)=O	0.1	-0.5	-7.4%	4.4	2.7	0.675	3.1
CCOc1ccccc1N1CCN(Cc2ccc(OC)c(OC)c2)CC1	-0.8	3.7	28.2%	1.8	-1.8	0.678	0.6
CCCCN(CC)Cc1ccc(CNC(=O)Nc2ccc(Cl)cc2)o1	-0.5	3.7	2.2%	-5.8	-2.7	0.666	3.5
Cc1ccc(C(=O)NC(CCc2ccccc2)C(=O)O)cc1 (stereo not given)	x	5.0	-0.9%	3.2	x	0.694	-0.2
COc1ccc(C(Nc2ccccn2)c2c(NC(=O)c3ccco3)sc(C)c2C)cc1OC (stereo not given)	0.2	1.1	x	1.2	-0.9	0.72	-41.1
O=C(NN1C(=O)NC2(CCCCC2)C1=O)c1ccc(Cl)s1	-0.5	-0.5	x	-4.0	-0.2	0.678	0.8
O=C(c1cc(-c2ccc(F)cc2)no1)N1CCN(Cc2ccc3c(c2)OCO3)CC1	0.9	2.6	2.1%	-6.7	-0.1	0.686	4.8
O=C(CSc1n[nH]c(-c2cccnc2)n1)Nc1ccnc2ccccc12	0.3	5.9	-3.5%	-8.3	-3.3	0.666	1.3
COc1cc(NC(=O)CN2C(=O)NC(c3ccccc3)(c3ccccc3)C2=O)cc(OC)c1	0.0	-3.4	x	6.1	2.0	x	x
(cont.)
SMILES	Bfl-1 A1 inh	HNF4A DNA FP	Vif TR-FRET	Beta2AR agonist	LANA-H2A inh	Ecoli growth	UCH37 inh
Cc1cc(Cl)ccc1OCCCC(=O)NO	0.0	5.1	-3.4%	9.9	3.7	0.684	1.3
CCOC(=O)C1CCCN(c2ccc(NC(=O)c3snc4c(=O)[nH]c(C)nc34)cc2)C1 (stereo not given)	0.4	-3.9	6.3%	-2.3	1.6	0.732	12.2
C#CCOCCOCCOCCNc1nc(N2CCN(C(=O)CCCCCCCCCCNC(=O)[C@@H](CCSC)n3cc(CCO)nn3)CC2)nc(N2CCN(C(=O)CCCCCCCCCCNC(=O)[C@@H]([C@H](C)O)n3cc(C)nn3)CC2)n1	0.2	-0.2	x	9.1	-9.2	x	1.1
CCc1nc2ccccc2n(CC)c1=O	0.1	1.6	-1.4%	12.3	-2.4	0.642	0.1
COc1cc(CCC(=O)Nc2c(C(=O)N3CCN(c4ccccc4OC)CC3)oc3ccccc23)on1	1.0	4.6	x	10.6	-0.9	0.678	1.2
Cc1ccc(S(=O)(=O)N2CCN(CC(=O)N/N=C\c3ccccn3)CC2)cc1	-1.6	6.1	x	8.9	-0.2	x	x
C/C(=N/NC(=O)c1cc(O)c(O)c(O)c1)c1ccc([N+](=O)[O-])cc1	x	-6.5	-5.6%	-3.2	x	x	x
O=C(NNC(=O)c1ccccc1O)c1cccc(Br)c1	-1.7	1.8	x	0.5	-1.8	0.598	1.4
CCOc1ccc(C2C(C(=O)Nc3cc(C)on3)c3ccccc3C(=O)N2CCN2CCOCC2)cc1 (stereo not given)	0.6	6.2	12.8%	-1.0	-0.1	0.677	-1.5
O=C(Oc1ccc(Br)cc1C(=S)N1CCCCC1)c1cc([N+](=O)[O-])cc([N+](=O)[O-])c1	-0.2	-2.4	12.0%	6.1	3.8	x	3.7
